2A StopGo = High Throughput Screening for Foot and Mouth Disease Virus Antivirals. 1.2% of 410,000 active. human cells with a luciferase reporter of 2A StopGo recoding; control for the full effect not named in the record. Potency, µM (series often up to 57.9 µM), inactives show at the highest dose signal change, negative = less light; active = well fitted falling curve with a large enough effect; inconclusive = small, poorly fitted or top-dose-only effect; inactive = no such curve, though single readings can be large or run the other way; tested in HEK293T cells; note: % is set by controls: 0 for no effect and ±100 for the full control effect; nearly all actives have a fitted effect of over 45% in size; luciferase light after 4 h
Cruzain inh noDet = qHTS Assay for Promiscuous and Specific Inhibitors of Cruzain (without detergent) | Cruzipain (Trypanosoma cruzi), P25779 | purified cruzain, Z-FR-AMC fluorescence, no detergent | Potency, µM, for the others: max response, negative = inhibition, hits mostly inhibitors | 2.3% of 200,000 active; active = well fitted curve in the direction sought with a large enough effect; inconclusive = small, poorly fitted or top-dose-only effect, or another doubt; inactive = no such curve, though single readings can be large; an effect the other way counts as inactive or inconclusive;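 note: plate controls were enzyme without inhibitor for no effect and buffer without enzyme for full effect; nearly all actives have a fitted effect of over 40% in size; top concentration of the series not given in the record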
Target sequence (P25779 123-467 limits assumed): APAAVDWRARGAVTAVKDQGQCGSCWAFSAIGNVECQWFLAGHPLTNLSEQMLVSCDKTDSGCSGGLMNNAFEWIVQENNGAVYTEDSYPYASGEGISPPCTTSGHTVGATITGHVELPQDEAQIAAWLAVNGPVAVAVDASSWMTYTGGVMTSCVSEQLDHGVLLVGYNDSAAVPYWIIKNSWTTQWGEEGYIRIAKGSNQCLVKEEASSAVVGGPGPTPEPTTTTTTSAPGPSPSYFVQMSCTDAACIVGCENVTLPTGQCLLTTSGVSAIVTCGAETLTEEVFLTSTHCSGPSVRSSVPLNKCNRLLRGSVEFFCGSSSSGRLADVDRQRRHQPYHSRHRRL
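Purified cruzain at 1.5 nM, pre-incubated 15 min with compound at room temperature in 100 mM sodium acetate pH 5.5, 5 mM DTT, 0.00005% Triton X-100. Reaction started with 2 uM Z-FR-AMC; AMC fluorescence increase over 60 s gives rate.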
SARS PLP yeast = qHTS of Yeast-based Assay for SARS-CoV PLP; Potency, µM (titrated, usually from 32.9 µM), for the others: top-dose activity, positive = growth rescue; AID 485353, 2010; S. cerevisiae expressing SARS-CoV PLpro, growth rescue; control for the full effect not named in the record; 0.19% of 330,000 active; note: 0% is about no effect; nearly all actives have a fitted effect of over 55% in size; growth read by luminescence after 48 h
RE007 growth inh = qHTS Assay for Inhibitors of the HIV-1 protein Vpr; 0.21% of 360,000 active; Potency, µM (highest dose often 92.2 µM), without a hit: at the highest dose activity change, negative = less growth; S. pombe RE007 Vpr strain, BacTiter-Glo ATP luminescence, 24 h; control for the full effect not named in the record; active = well fitted falling curve with a large enough effect; inconclusive = small, poorly fitted or top-dose-only effect; inactive = no such curve, though single readings can be large or run the other way;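 note: % is set by controls: 0 for no effect and ±100 for the full control effect; nearly all actives have a fitted effect of over 50% in size; the assay follows cell death caused by Vpr and the record does not say whether a fall means rescue or toxicity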
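Fission yeast strain RE007, carrying one chromosomally integrated HIV-1 vpr copy, was seeded at OD 0.01 in PMG+AL medium with 23 nL pinned compound. After 24 h at 30 °C and 99% humidity, viability was read by BacTiter-Glo luminescence.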
LASV entry inh = qHTS for Inhibitors of binding or entry into cells for Lassa Virus; Lassa virus pseudotype entry inhibition, cell reporter; control for the full effect not named in the record; Potency, µM (top dose mostly 37.9 µM), for the others: top-dose activity change, negative = inhibition, actives largely listed as inhibitors; 1.2% of 300,000 active; AID 540256, 2011; active means well fitted inhibition curve with a large enough effect; inconclusive means small, poorly fitted or top-dose-only effect, or effect the other way; inactive means flat fitted curve, though single readings scatter; tested in HEK293 cells; note: % is set by controls: 0 for no effect and ±100 for the full control effect; nearly all actives have a fitted effect of over 50% in size; luciferase read-out
NS1 function inh = qHTS Assay for Inhibitors of Influenza NS1 Protein Function; AID 2326, 2010; 0.4% of 270,000 active; S. cerevisiae slowed by influenza A NS1, growth recovery by OD600; Potency, µM (series often up to 46.1 µM), inactives show top-dose activity, positive = more growth; note: actives are rising curves; nearly all actives have a fitted effect of over 50% in size
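Compounds were scored for reversing the slow growth caused by influenza A NS1 in S. cerevisiae, measured by optical density at 600 nm. Assay medium contained 2% galactose at pH 6.0; NS1-free yeast of the same strain were the positive control.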
Cruzain Triton = qHTS Assay for Promiscuous and Specific Inhibitors of Cruzain (with detergent) | Potency, µM, inactives show max response, negative = inhibition, hits mostly inhibitors | purified cruzain, Z-FR-AMC fluorescence, 0.01% Triton | Cruzipain (Trypanosoma cruzi), P25779 | 0.43% of 200,000 active; active = well fitted curve in the direction sought with a large enough effect; inconclusive = small, poorly fitted or top-dose-only effect, or another doubt; inactive = no such curve, though single readings can be large; an effect the other way counts as inactive or inconclusive;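 note: plate controls were neutral wells for no effect and buffer without enzyme for full effect; nearly all actives have a fitted effect of over 40% in size; top concentration of the series not given in the record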
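Read-out: AMC fluorescence (360 nm excitation, 450 nm emission), four reads over 2 min, first-to-third difference used. Conditions: cruzain 1.5 nM, Z-FR-AMC 2 uM, pH 5.5 acetate, 5 mM DTT, 0.01% Triton X-100.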
Marburg entry inh = qHTS for inhibitors of binding or entry into cells for Marburg Virus | Potency, µM (series often up to 37.8 µM), inactives show top-dose activity change, negative = inhibition, hits mostly inhibitors | 1.8% of 300,000 active | Marburg virus pseudotyped entry inhibition, cell reporter; control for the full effect not named in the record; about a third of the inactives were read at about 46 µM; active = well fitted inhibition curve with a large enough effect; inconclusive = small, poorly fitted or top-dose-only effect, or effect the other way; inactive = flat fitted curve, though single readings scatter; tested in HEK293 cells; about a fifth of its hits are not listed in these tables; note: % is set by controls: 0 for no effect and ±100 for the full control effect; luciferase read-out
An asterisk follows results filed as active; u = inconclusive; x = not tested or not shown; [ ] = another dose, or the depositor's remark. Unless noted, calls come from the whole dose curve; as a rule, active means well fitted rising curve with a large enough effect; inconclusive means small, poorly fitted or top-dose-only effect; inactive means no such curve, though single readings can be large or run the other way. Potency is the fitted concentration of half-maximal effect.

The first 2 entries, to show the layout:
SMILES	2A StopGo	Cruzain inh noDet	SARS PLP yeast	RE007 growth inh	LASV entry inh	NS1 function inh	Cruzain Triton	Marburg entry inh
CC(C)CCNC(=O)C(c1ccc(O)cc1)N(Cc1ccco1)C(=O)CCC(=O)Nc1nccs1 (stereo unspecified)	8%	x	-1%	-20%	-12%[46.1 µM]	12%	x	u
CCc1ccc(NC(=O)CS(=O)CC(=O)N2CCN(c3ccccc3F)CC2)cc1 (stereo unspecified)	-5%	x	-4%	8%	x	12%	x	23%[46.1 µM]

All compounds of this part, repeating the preview:
SMILES	2A StopGo	Cruzain inh noDet	SARS PLP yeast	RE007 growth inh	LASV entry inh	NS1 function inh	Cruzain Triton	Marburg entry inh
CC(C)CCNC(=O)C(c1ccc(O)cc1)N(Cc1ccco1)C(=O)CCC(=O)Nc1nccs1 (stereo unspecified)	8%	x	-1%	-20%	-12%[46.1 µM]	12%	x	u
CCc1ccc(NC(=O)CS(=O)CC(=O)N2CCN(c3ccccc3F)CC2)cc1 (stereo unspecified)	-5%	x	-4%	8%	x	12%	x	23%[46.1 µM]
Cc1c(Cl)ccc(S(=O)(=O)Nc2cccnc2)c1Cl	-5%	x	-2%	-10%	4%[46.1 µM]	-4%	x	-2%[46.1 µM]
Cc1cccc(-c2nc(CN3CCCC(C(=O)NC4CCCCC4)C3)c(C)o2)c1 (stereo unspecified)	u	-3%	5%	-2%	-18%	-4%	-1.4%	u
O=C(CSc1ncccc1C(=O)O)c1cccc(C(F)(F)F)c1	56%[activator]	x	0%	-8%	-9%	-2%	x	-15%[46.1 µM]
O=C(Nc1ccccc1N1CCCC1)C1CC(=O)N(Cc2ccccc2)C1 (stereo unspecified)	-8%	x	-2%	12%	8%	x	x	-2%
COc1ccc(/C=N/NC(=O)c2cccc([N+](=O)[O-])c2)cc1OC	-4%	x	0%	16%	4%	5%	x	8%
CSC1=N/C(=C\c2ccc(C)o2)C(=O)S1	13%	-9%	1%	u	6%	-53%	-11%	5%
C=CCn1c(=N)n(CC(=O)c2ccc(Br)s2)c2ccccc21	-41%	-2%	-7%	4%	u	-3%	-1.8%	u
O=c1oc2ccccc2cc1NCc1ccccc1O	22%	5%	-41%	u	0%	-85%	-16%	u
O=C(N/N=C/c1ccco1)c1ccc(Br)o1	x	-2%	0%	16%	22%	-13%	-2.1%	-4%
COc1ccc(Nc2nc(NCc3ccco3)nc(N)c2[N+](=O)[O-])cc1	-11%	x	-1%	4%	-12%	1%	x	15%[14.2 µM]
CCOC(=O)N1CCC(=NNc2nc3ccccc3s2)CC1	-17%	x	-3%	-2%	x	-1%	x	0%
N=c1c(C(=O)NCc2ccc(F)cc2)cc2c(=O)n3ccccc3nc2n1CCCN1CCOCC1	0%	u	u	-20%	-12%	2%	-19%	u
CCCn1c(SCC#N)nc2c(c1=O)C1(CCCC1)Cc1ccccc1-2	u	-20%	-6%	-1%	u	28%	-5.3%	u
Cc1ccc(C(=O)CCC(=O)Nc2ncccc2O)cc1	23%	x	7%	-22%	-20%	x	x	u
Cc1ccc(NC(=O)c2ccc3nc[nH]c3c2)nc1	2%	x	3%	2%	-21%[46.1 µM]	6%	x	-23%[46.1 µM]
CC1C(=O)N2CCCc3cc(NC(=O)C(=O)NCCc4ccc(F)cc4)cc1c32 (stereo unspecified)	0%	x	-1%	4%	-20%	x	x	6%[46.1 µM]
O=C(Nc1nccs1)c1ccc(CSc2nnnn2-c2ccccc2)cc1	-17%	u	-4%	-10%	-23%	5%	3.7%	u
CCCNc1ccc(S(=O)(=O)N(C(C)C)C(C)C)cn1	25%	9%	7%	-4%	6%	-1%	-1.3%	26%
COc1ccc2c(c1)C(=O)CC(O)(C(F)F)O2 (stereo unspecified)	-3%	x	0%	-1%	u	-5%	x	4%
Cc1nc(C(F)(F)F)ccc1C(=O)N1CCCCC1	-12%	x	1%	3%	1%	4%	x	-3%[46.1 µM]
O=C(O)C1C=Cc2ccccc2N1C(=O)c1ccccc1 (stereo unspecified) (tested in a mixture with another compound)	-19%	x	x	0%	-28%	x	x	19%
CCn1c(CSc2ncccn2)nnc1SCC(=O)N1CCCCC1	69%[activator]	x	0%	-1%	x	-1%	x	x
COc1ccc(NC(=O)CCNS(=O)(=O)c2cccc3nonc23)cc1Cl	13%	x	-1%	16%	9%[46.1 µM]	4%	x	0%[46.1 µM]
(further entries)
SMILES	2A StopGo	Cruzain inh noDet	SARS PLP yeast	RE007 growth inh	LASV entry inh	NS1 function inh	Cruzain Triton	Marburg entry inh
O=C(N/N=C/c1ccc(Cl)c(Cl)c1)c1ccc2nc[nH]c2c1	27%	x	-2%	0%	x	-4%	x	x
N#C/C(=C\c1ccc(-c2cccc(Cl)c2)o1)C(=O)Nc1cccc(C(F)(F)F)c1	1%	-10%	x	x	22%[46.1 µM]	x	2.9%	x
COc1ccc(CONc2ncnc3nonc23)cc1[N+](=O)[O-]	0%	x	2%	-15%	-14%	x	x	-9%
c1ccc2c(c1)nc1n2CCN1CCN1CCCC1	-3%	x	-1%	-12%	-23%	4%	x	-1%
CC(=O)N(CC(=O)N(CC(=O)O)c1ccc(Cl)cc1)c1ccc(Cl)cc1	-11%	x	x	-21%	4%[46.1 µM]	x	x	u
Cc1ccc(S(=O)(=O)NCc2cccnc2)c(C)c1	40%[activator]	x	u	8%	20%[46.1 µM]	10%	x	-14%[46.1 µM]
Cc1ccc(-c2nc(CN3CCCCC3)cc(CN3CCCCC3)c2O)cc1	0%	x	-1%	-1%	-5%	3%	x	u
COc1ccc(Cl)cc1NC(=O)[C@@]1(CC(=O)O)CC(/C=C/c2ccccc2)=NO1	-17%	x	-1%	-7%	x	5%	x	x
O=C(N/N=C/c1cccnc1)c1ccc(NC(=O)C(c2ccccc2)c2ccccc2)cc1	u	-28%	1%	3%	u	0%	-1.6%	u
COc1cccc(-c2cc(C(=O)NCCc3ccc(OC)c(OC)c3)no2)c1	-18%	-8%	x	x	3%[46.1 µM]	x	-3.7%	12%[46.1 µM]
Cc1cccc(Nc2nc(N)nc(CSc3nccn3C)n2)c1	2%	-9%	2%	-13%	27%	8%	1.5%	-3%
CCOC(=O)C1CCN(C(=O)CCc2nc3sc4c(c3c(=O)[nH]2)CCCC4)CC1	-11%	x	-1%	5%	-2%	x	x	14%
Oc1ccccc1-c1n[nH]c(=S)n1Cc1ccco1	12%	1%	1%	7%	u	3%	5.0%	0%
O=c1nc2n(c3ccccc13)Cc1ccccc1-2	x	1%	-27%	x	x	9%	1.0%	-2%
Cc1ccc(NC(=O)c2cccc(S(=O)(=O)N3CCc4ccccc4C3)c2)nc1	u	x	4%	-4%	-28%	x	x	-18%
CSCCC(NC(=O)C1CCCCC1)C(=O)Nc1ccc(F)c(Cl)c1 (stereo unspecified)	15%	-2%	x	x	23%[46.1 µM]	x	-3.2%	u
CCC(CC)C(=O)c1c[nH]c(C(=O)NCc2ccccc2)c1	-1%	x	1%	-3%	x	1%	x	x
CCOC(=O)c1cc(C(C)=O)c(=O)n(C)c1N	-9%	-10%	4%	-8%	-2%	1%	-4.5%	-22%
CC(=O)Oc1oc(-c2ccccc2)nc1C=Nc1ccc(N(C)C)cc1	-13%	x	-1%	6%	-7%	-5%	x	10%[46.1 µM]
Cc1nn(C)cc1C(=O)Nc1ccccc1Br	26%	8%	-13%	-2%	-33%	-9%	2.1%	2%
COc1ccc(CC(NC(C)=O)C(=O)NC2CCN(S(=O)(=O)c3cccc4ccccc34)CC2)cc1OC (stereo unspecified)	x	u	7%	-22%	u	2%	-0.2%	0%
CC(C)(C)c1cc(C(=O)N2CCc3ccccc3C2)ccn1	1%	x	0%	10%	x	-2%	x	x
Cc1ccc(C(=O)c2c3ccc(C(F)(F)F)cc3[n+]([O-])n2CCC(N)=O)cc1	-7%	x	0%	20%	x	22%	x	x
COc1ccc(NC(=O)c2cnc(C)cn2)c2ncccc12	x	-4%	-14%	x	x	-7%	-9.6%	x
COc1ccc(OC)c(NC(=O)Cn2c(=O)cc(C)c3c(C)nn(-c4cccc(Cl)c4C)c32)c1	-30%	-2%	x	x	1%[46.1 µM]	x	7.1%	x
COc1cccc(N2CC(NC(=O)C3CCCC3)CC2=O)c1 (stereo unspecified)	-19%	6%	x	x	29%[46.1 µM]	x	1.9%	x
COc1ccc(OC)c(NC(=O)c2c(NCc3cccs3)sc3c2CCCCC3)c1	27%	1%	x	x	-21%[46.1 µM]	x	-9.7%	x

Shown with values under each structure: entries from further up
Results follow in this order: 2A StopGo | Cruzain inh noDet | SARS PLP yeast | RE007 growth inh | LASV entry inh | NS1 function inh | Cruzain Triton | Marburg entry inh
Oc1ccccc1-c1n[nH]c(=S)n1Cc1ccco1
  12% | 1% | 1% | 7% | u | 3% | 5.0% | 0%
CSCCC(NC(=O)C1CCCCC1)C(=O)Nc1ccc(F)c(Cl)c1 (stereo unspecified)
  15% | -2% | x | x | 23%[46.1 µM] | x | -3.2% | u
N#C/C(=C\c1ccc(-c2cccc(Cl)c2)o1)C(=O)Nc1cccc(C(F)(F)F)c1
  1% | -10% | x | x | 22%[46.1 µM] | x | 2.9% | x
COc1ccc(OC)c(NC(=O)Cn2c(=O)cc(C)c3c(C)nn(-c4cccc(Cl)c4C)c32)c1
  -30% | -2% | x | x | 1%[46.1 µM] | x | 7.1% | x

Rows were taken by chance; 4.7% or so of the library scored in one or more.
